# High-throughput results from PubChem.
# HCMV UL50-53 inh: inhibitors of HCMV UL50-UL53 interaction, biochemical, HTRF | HCMV UL50-UL53 nuclear egress complex (human cytomegalovirus) | normalized percent inhibition | inhibition, % (no concentration beside the values) | 0.15% of 190,000 active;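 active = both replicates at 50% or more, plus weaker picks with an unusually low signal ratio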;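 also: stock transfer was 100 nL into about 20 µL; 0% = negative control wells and 100% = wells with untagged competitor protein; inactives centre near -12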
# * hit, by the source's call; & = joins results of further samples.
# A first look, six compounds:
SMILES,HCMV UL50-53 inh
CCc1nc(C#N)c(N2CCCCC2)o1,-16
Cc1ccc(-n2sc(=O)n(Cc3ccc(F)cc3)c2=O)cc1,-13
Cc1ccc(C(=O)NCC2CCCN(C(=O)C3CC3)C2)cn1 (stereo not given),1
CCCCn1c(CCCNC(=O)C(C)(C)C)nc2ccccc21,3
CCCCCC(=O)CC[C@H]1C=CC(=O)[C@@H]1C/C=C\CCCC(=O)O,-20&-20
O=C(/C=C/c1cccc(C(=O)NO)c1)NO,-20&-20

# Results, previewed entries included:
SMILES,HCMV UL50-53 inh
CCc1nc(C#N)c(N2CCCCC2)o1,-16
Cc1ccc(-n2sc(=O)n(Cc3ccc(F)cc3)c2=O)cc1,-13
Cc1ccc(C(=O)NCC2CCCN(C(=O)C3CC3)C2)cn1 (stereo not given),1
CCCCn1c(CCCNC(=O)C(C)(C)C)nc2ccccc21,3
CCCCCC(=O)CC[C@H]1C=CC(=O)[C@@H]1C/C=C\CCCC(=O)O,-20&-20
O=C(/C=C/c1cccc(C(=O)NO)c1)NO,-20&-20
COc1cccc(/C=C2\SC(=O)N(CCC(=O)O)C2=O)c1,-35
Cc1ccc(N2CC(c3nc4ccccc4[nH]3)CC2=O)c(C)c1 (stereo not given),-13
CCOc1ccccc1Nc1ncnc2c1cnn2-c1ccccc1,5
O=C(O)CSc1ccc2ccccc2n1,-21
Cc1nn(C)c(C)c1-c1ccnc(NCc2ccc3nsnc3c2)n1,-36
CCCN1CCC(N2CCC(n3cc(-c4ccccc4)nn3)CC2)CC1,-4
CC(CN1CC(=O)NC(=O)C1)N1CC(=O)NC(=O)C1 (stereo not given),-1
N#Cc1nc(-c2ccccc2)oc1NN,-26
COc1ccc(/C=C/C(=O)NCCSc2c[nH]c3ccccc23)cc1OC,-18
CC(=O)NCCc1cc2ccc(C)cc2[nH]c1=O,3
CN(C)c1nn(C(=S)Nc2ccccc2)cc1-c1ccccc1,2
CCC(=O)Nc1nnc(SCc2ccc(C(F)(F)F)cc2)s1,-17
CCC(CC)C(=O)c1c[nH]c(C(=O)OC)c1,-2
COC(=O)C(C)Sc1nnc(-c2c[nH]c3ccccc23)n1-c1ccc(F)cc1 (stereo not given),-13
O=C(CCCCCN1C(=O)c2cccc3cccc(c23)C1=O)NO,-101&-159
COC(=O)c1ccc(/C=C2/SC(=Nc3cccnc3)NC2=O)cc1,-1
COc1cc(/C=C2/SC(=O)N(c3ccc(C)cc3)C2=O)ccc1O,-14
Cc1ccc2c(c1)sc(=NC(=O)c1cc(Cl)sc1Cl)n2C,-14
CC(NCC(O)COc1ccc2c(c1)CCC2)c1ccccc1 (stereo not given),-9
CCCOC(=O)CSC1=C(C#N)C(c2ccccc2)CC(=O)N1 (stereo not given),-29
O=C(Oc1ccc2cc(Br)ccc2c1)c1ccncc1,-8
O=C(O)Cc1c(-c2ccccc2)c2cc(Br)ccc2[nH]c1=O,6
O=C(CSC1CCCCC1)N1CCCCCC1,0&-6
COc1ccc(C(=O)CSc2nc3ccccc3o2)cc1,-1
CC1(C)CC(O)CC(C)(C)N1CC(O)COc1ccc(-c2ccccc2)cc1 (stereo not given),-18
O=c1[nH]nc(SCc2ccc(Cl)cc2)n1C1CC2C=CC1C2 (stereo not given),-6
CC12CCC(C(=O)Nc3nccs3)(CC1=O)C2(C)C (stereo not given),-2
Cn1cc(-c2ccc3ncc(Cc4ccc5ncccc5c4)n3n2)cn1,-24
CCOC(=O)CCSc1ncnc2sc3c(c12)CCC3,-10
N#Cc1c(NC(=O)C2CC2)sc2c1CCCC2,-5
Cc1c(C)n(CC(O)CNC2CCCC2)c2ccccc12 (stereo not given),2
CCOc1ncccc1C(=O)Nc1ccc(Cl)cc1,8
O=C1c2ccccc2S(=O)(=O)N1CC(O)COc1ccc(Cl)cc1Cl (stereo not given),-4
C[C@@]12CC[C@H]3c4ccc(O)cc4CC(CCCCCCCCCS(=O)CCCC(F)(F)C(F)(F)F)[C@H]3[C@@H]1CCC2O (stereo not given in full),-14
COc1ccc(CCNC(=O)C2CCC(=O)N2CCc2ccccc2)cc1OC (stereo not given),-8
CS(=O)(=O)c1ccc(N)cc1,-16
CC1(C)CC(=O)C(C=Nc2ccc(F)c(F)c2)=C(O)C1,6
C[C@]1(OC(=O)/C=C/c2ccccc2)C[C@@H](O)[C@]2(O)C=CO[C@@H](O[C@@H]3O[C@H](CO)[C@@H](O)[C@H](O)[C@H]3O)[C@@H]21,-28
CCC(CO)NCC(O)Cn1c2c(c3cc(C)ccc31)CCCC2 (stereo not given),-3
COc1ccc(NC(=O)C2CCCCC2)c2ccccc12,-7
Cc1ccc(CNC(=O)CNc2ccccc2-c2nc3ccccc3[nH]c2=O)cc1,-9
O=C(COc1ccccc1)Nc1ncc(Cc2ccccc2)s1,-13
CSc1cccc(NC2=NC3CS(=O)(=O)CC3S2)c1 (stereo not given),-10
C=CCN1C(=O)C(C(=O)NC(C)(C)C)C2CC1(C)Oc1ccccc12 (stereo not given),-10

# The list continues:
SMILES,HCMV UL50-53 inh
CN1C(=O)CC(c2ccccc2)Sc2ccccc21 (stereo not given),-17
CCCC1CC(C(=O)NC(C(C)Cl)C2OC(SC)C(O)C(O)C2O)N(C)C1 (stereo not given),-7&-27&-20
CCCC[C@@H]1C[C@@H]1C(=O)N1CCC(n2cc(CC(C)C)nn2)CC1,-5
Cc1nn(-c2ccccc2)c(N)c1C(N)=S,35
O=C(/C=C/c1ccccc1)Nc1nccs1,-16
CCCCCCCCCCCCCCCC(=O)NCC(=O)O,-14
CCCCC[C@H](O)/C=C/[C@H]1C=CC(=O)[C@@H]1C/C=C\CCCC(=O)O,-21&-21&3
NC(=O)c1ccsc1NC(=O)c1cc(-c2ccccc2)nc2ccccc12,-5
N=C(N)c1ccc2cc(OC(=O)c3ccc(N=C(N)N)cc3)ccc2c1,-66&-50
O=C(O)CCCC(=O)Nc1nc2ccccc2[nH]1,-16
O=C(c1ccco1)N1CCn2c1nc1ccccc12,-9
CCCCC[C@H](O)/C=C/[C@@H]1[C@H]2CC(CCCCC(=O)O)O[C@H]2C[C@H]1O (stereo not given in full),-18&-18
CC(=O)NCCCc1nc2ccccc2n1Cc1ccccc1Cl,-4
C=C1CCC(O)CC1=CC=C1CCC[C@]2(C)C(C(C)C=CC(C)C(C)C)CC[C@@H]12 (stereo not given in full),-13
CC1(C(=O)N2CCC(n3cc(C(C)(C)C)nn3)CC2)CCCO1 (stereo not given),-11
CSCC[C@H](NC(=O)[C@H](Cc1c[nH]c2ccccc12)NC(=O)[C@H](C)NC(=O)OC(C)(C)C)C(=O)N[C@@H](CC(=O)O)C(=O)N[C@@H](Cc1ccccc1)C(N)=O,-24
C=CCNC1=C2CC(C)CC(OC)C(O)C(C)C=C(C)C(OC(N)=O)C(OC)C=CC=C(C)C(=O)NC(=CC1=O)C2=O (stereo not given),-95
CCCNC(=O)Nc1ccc(Oc2ncnc3cc(OC)c(OC)cc23)cc1Cl,-1
Cc1c(-c2ccc3ccccc3n2)sc2ncnn12,-19
O=C(O)c1ccc(-c2ccc([N+](=O)[O-])cc2Cl)o1,-172

# Part of the list above in order of count of non-hydrogen atoms, falling.
SMILES,HCMV UL50-53 inh
C=C1CCC(O)CC1=CC=C1CCC[C@]2(C)C(C(C)C=CC(C)C(C)C)CC[C@@H]12 (stereo not given in full),-13
CCCCC[C@H](O)/C=C/[C@@H]1[C@H]2CC(CCCCC(=O)O)O[C@H]2C[C@H]1O (stereo not given in full),-18&-18
CC(=O)NCCCc1nc2ccccc2n1Cc1ccccc1Cl,-4
Cc1c(-c2ccc3ccccc3n2)sc2ncnn12,-19

# Next section:
SMILES,HCMV UL50-53 inh
CCC1CCCCN1S(=O)(=O)c1c(C)cc(C)cc1C (stereo not given),12
CC(C)(C)OC(=O)N[C@@H](Cc1ccccc1)c1n[nH]c(=S)n1CC1CCCO1 (stereo not given in full),-1
CC(O)c1nc2ccccc2n1C (stereo not given),-4
C#C[C@]1(OC(C)=O)CC[C@H]2[C@@H]3CCC4=C[C@@H](OC(C)=O)CC[C@@H]4[C@H]3CC[C@@]21C,-19
O=C(N=C1SCC(=O)N1c1ccccc1)c1ccccc1,2
CN1CCN(Cc2c(O)ccc3c4c(c(=O)oc23)CCCC4)CC1,-20
O=C(Nc1nnc(-c2ccc(Cl)cc2)o1)c1ccc2ncsc2c1,-3
O=C(NCCn1ccc2ccccc21)c1ccc2c(c1)OCO2,-9
CC1(COc2ccc(CC3SC(=O)NC3=O)cc2)CCCCC1 (stereo not given),-5&-13&-13&-5
CC(=O)N1CCc2c(sc(NC(=O)c3ccccc3)c2C(N)=O)C1,-37
COc1ccc(CCNC(=O)CSc2c[nH]c3ccccc23)cc1OC,-8
CCOc1ccc(-c2nn(C)c(C)c2Oc2ccccc2)c(O)c1,-7
CC(C)c1ccccc1OCC(O)CN1CCCCC1 (stereo not given),-9
COC(=O)CN1CCN(c2cc(OC)ncn2)CC1=O,-10
CN(C)CCOC(=O)c1ccccc1C(=O)O,-20
CCOC(=O)c1sc(NC(=O)CSc2ccc(C)cc2)nc1C,-9
CCOC(=O)c1ccc(NC(=O)c2ccc3ncsc3c2)cc1,9
COc1cc(C(=O)NC2CCN(C)CC2)ccc1Nc1ncc2c(n1)N(CCc1ccccc1)CCC(=O)N2C,-9
OCc1nc2ccccc2[nH]1,5
O=C(c1ccco1)N1CCN(S(=O)(=O)c2ccc(Cl)c(C(F)(F)F)c2)CC1,-3

# Part of the list above, with each value named.
structure: CCOc1ccc(-c2nn(C)c(C)c2Oc2ccccc2)c(O)c1
- HCMV UL50-53 inh: -7
structure: CC(C)c1ccccc1OCC(O)CN1CCCCC1 (stereo not given)
- HCMV UL50-53 inh: -9
structure: COC(=O)CN1CCN(c2cc(OC)ncn2)CC1=O
- HCMV UL50-53 inh: -10
structure: CN(C)CCOC(=O)c1ccccc1C(=O)O
- HCMV UL50-53 inh: -20

# Additional compounds:
SMILES,HCMV UL50-53 inh
O=C1c2ccccc2CCC1CNCCc1ccc(O)cc1 (stereo not given),-4
C#CCCCCCCCCCNC(=O)Oc1cccc(-c2cccc(C(N)=O)c2)c1,-23&-23
Cc1ccc(-c2cc(C(=O)NCC3CC3)cc(S(=O)(=O)N3CCOCC3)c2)s1,-8
CC1=C(C(=O)Nc2ccccc2)C(c2cccs2)C(C#N)=C(SCC(N)=O)N1 (stereo not given),-4
C[C@@H](OCc1ccccc1)[C@@H]1NC(=O)[C@H]2CN(C(=O)Oc3ccccc3)CCN2C1=O,0
O=C(COc1ccccc1)Nc1ccc(-n2nncc2-c2ccccc2)cc1,12
COc1ccc(-n2ccnc2SCC(=O)NCCc2ccccc2)cc1,6
COC1C=CO[C@]2(C)Oc3c(C)c(O)c4c(O)c(c5c(nc6cc(C)ccn65)c4c3C2=O)NC(=O)C(C)=CC=CC(C)C(O)C(C)C(O)C(C)C(OC(C)=O)C1C (stereo not given in full),-33
Cc1cc2cc(CNC(=O)c3cccs3)ccc2n1C,-1
COc1cc(NC(=O)c2nccnc2N)cc(C(=O)Nc2cccc(C(F)(F)F)c2)c1,-21
CCc1ccccc1NC(=O)c1ccc(S(=O)(=O)N(C)C)cc1,-13
COC(=O)/C=C1\SC(N)=NC1=O,-33
COc1cc(N)n(S(=O)(=O)c2ccc(C)cc2)n1,-2
Cc1[nH]c2ccccc2c1C(Nc1ccccn1)c1cccs1 (stereo not given),-12
CC[C@H](CO)NCCN[C@H](CC)CO,-6
CCCCCCCC(=O)OC[C@H](CO)OC(=O)CCCCCCC,-22&-22&0
CCOC(=O)C1=C(c2ccccc2)OC(N)=C(C#N)C1c1ccccc1 (stereo not given),-8
COc1ccc(S(=O)(=O)Nc2ccc3oc(=O)sc3c2)cc1,5&-8
Cc1ccc(S(=O)(=O)NC(C)(C)CSc2ncccn2)cc1,-16
OCC(O)C(O)C(O)CO (stereo not given),14
COc1cccc(OCC(=O)OC2CCS(=O)(=O)C2)c1 (stereo not given),5
O=C(Nc1nc2ccc(F)cc2s1)c1ccccc1Br,-13
OCCCNc1cc(-c2ccnc(Nc3cccc(Cl)c3)n2)ccn1,-17&-11&-20&-26&-12
c1ccc2c(c1)CCN2c1ncnc2nc[nH]c12,-15
CC(NC(=O)Cc1ccccc1)C(=O)O (stereo not given),-23
Cc1cc(C)c(S(=O)(=O)N2CCSC2)cc1C,1
CCOC(=O)N1CCN(c2ccc(C(F)(F)F)cn2)CC1,-18
CCC(NC(=O)C(C)NC)C(=O)N1CC(O)CC1Cc1c(-c2[nH]c3cc(F)ccc3c2CC2CC(O)CN2C(=O)C(CC)NC(=O)C(C)NC)[nH]c2cc(F)ccc12 (stereo not given),-19
CC(=O)N[C@@H](CC(C)C)C(=O)O,-23
Cc1ccc(C(=O)N/C(=C/c2ccco2)C(=O)Nc2cccc(C)c2)cc1,-29
CC(C)C(=O)Nc1nnc(SCC(=O)Nc2ccccc2)s1,0&-30
CC(NC(=O)c1ccccc1)C(O)c1ccccc1 (stereo not given),-2
O=C(NCCn1ccc2ccccc21)c1cc2ccccc2oc1=O,8
O=C(Nc1nnc(SCc2cccc(F)c2)s1)c1ccccc1,-7
CN(C)C(=O)CCSC(SCCC(=O)O)c1cccc(/C=C/c2ccc3ccc(Cl)cc3n2)c1 (stereo not given),-14&-14
N#CC1=C(SCC(=O)NC2CCCCC2)NC(=O)CC1c1ccco1 (stereo not given),-11
N#CC(NC(=O)c1ccccc1)=C(Br)Br,6
CCNc1cc(NC2CCC(O)CC2)nc(Nc2ccc3c(ccn3Cc3ccccc3)c2)n1 (stereo not given),4
O=C1C(CCC(O)c2ccc(F)cc2)C(c2ccc(O)cc2)N1c1ccc(F)cc1 (stereo not given),9&-62
O=S(=O)(NC1CCCCC1N1CCCCC1)c1ccccc1 (stereo not given),2
CSc1nnc(CSc2nc(C)cc(C)n2)n1-c1ccc(F)cc1,-3
Cc1cc(-c2ccccc2)nc2cc(C(=O)NCC3CCCO3)nn12 (stereo not given),-18
CC(=O)Nc1ccc(OCc2c(C)noc2C)cc1,1&-13
CCC(=O)OCN1C(=O)C=CC1=O,0

# Individual results from the entries so far:
# HCMV UL50-53 inh result of `CSc1nnc(CSc2nc(C)cc(C)n2)n1-c1ccc(F)cc1` = -3
# HCMV UL50-53 inh result of `CCC(=O)OCN1C(=O)C=CC1=O` = 0

# An excerpt; rates above refer to the full screens.
